HPGD block: inhibitors of human 15-hydroxyprostaglandin dehydrogenase (HPGD); purified HPGD, NADH fluorescence kinetic, PGE2 substrate; Potency, µM, for the others: top-dose activity change, negative = inhibition, most hits filed as inhibitors; hit rate 4.3% among 150,000; AID 894; active = well fitted inhibition curve with a large enough effect (not every such curve was filed as active); inconclusive = small, poorly fitted or top-dose-only effect, or another doubt; inactive = no such curve, though single readings can be large or run the other way;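 note: top concentration of the series not given in the record; plate controls included wells without enzyme; inactives centre near -10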
Target sequence (P15428 whole entry, looked up): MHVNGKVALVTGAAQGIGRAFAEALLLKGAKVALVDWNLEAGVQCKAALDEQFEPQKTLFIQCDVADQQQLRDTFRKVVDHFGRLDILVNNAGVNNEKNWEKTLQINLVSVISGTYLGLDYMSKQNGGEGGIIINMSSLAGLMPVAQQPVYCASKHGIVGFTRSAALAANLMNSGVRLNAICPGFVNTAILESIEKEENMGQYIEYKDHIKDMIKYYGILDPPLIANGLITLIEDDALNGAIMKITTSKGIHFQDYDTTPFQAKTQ
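20 nM HPGD preincubated 15 min at room temperature with compound in 50 mM Tris-HCl pH 8, 0.01% Tween 20. Started with 1 mM NAD+ and 30 uM prostaglandin E2; NADH fluorescence (360/450 nm) read 5 times over 30-s intervals, last minus first.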
The depositor's hits bear a star; ? = inconclusive; & = joins results of further samples. % is set by controls: 0 for no effect and ±100 for the full control effect; potency is the fitted concentration of half-maximal effect.

HPGD block	SMILES
-20%	O=C(C1CCCN(S(=O)(=O)c2cccnc2)C1)N1CCn2c1nc1ccccc12 (centres undefined)
-2%	O=C(NCC(O)c1ccccc1)c1cccc(S(=O)(=O)N2CCOCC2)c1 (centres undefined)
-5%	CN1CCN(Cc2c(O)ccc3occ(C(=O)c4ccccc4)c23)CC1
-29%&-22%	CC(Cc1ccccc1)C(=O)N1CCN(C)CC1 (centres undefined)
-9%	CNCCNS(=O)(=O)c1cccc2cnccc12
-16%	Cc1c(NC(=O)CN2C(=O)NC(C)(c3ccccc3Cl)C2=O)c(=O)n(-c2ccccc2)n1C (centres undefined)
-17%	Nn1c(COc2ccccc2)nnc1SC(F)F
-14%	CCC(C)Sc1nc(C)nc2c1c(=O)n(C)c(=O)n2C (centres undefined)
-4%	COc1ccccc1NC(=O)CN(C)S(=O)(=O)c1cc(C)ccc1OC
-14%	COc1ccc(C2C(C(=O)c3ccco3)=C(O)C(=O)N2Cc2cccnc2)cc1OC (centres undefined)
-18%	CC1(C)CC(=O)C2=C(C1)N1CCCCC1CC2=O (centres undefined)
?	Cc1ccc(C)c(N(CC(=O)Nc2ccccc2C(=O)NCc2ccco2)S(=O)(=O)c2ccccc2)c1
-10%	O=C(O)C1CCCCN1S(=O)(=O)c1ccc(Cl)s1 (centres undefined)
-13%	COC(=O)c1nnn(CC(=O)Nc2ccc(C)c(F)c2)c1C(=O)OC
-20%	Cc1ccc(C(=O)CSc2nnc(-c3ccco3)n2Cc2ccccc2)cc1
-14%	CS(=O)(=O)N(CC(=O)Nc1ccc2c(c1)OCO2)c1ccc(Cl)cc1
-9%	Cc1sc2ncnc(N3CCN(c4ncccn4)CC3)c2c1C
-17%	O=C(Nc1ccc2c(c1)OCCO2)c1cnc2n(c1=O)CCS2
-8%	CC(C)c1ccccc1NC(=O)Cn1c(-c2ccccc2Cl)nc2ccccc21
-24%	CN(C)c1ccc(NC(=O)CCCc2ccccc2)cc1
-15%	Cc1ccc2nsnc2c1S(=O)(=O)N(Cc1ccco1)Cc1cc2cccc(C)c2[nH]c1=O
-12%	CN(CC(=O)O/N=C(\N)c1ccccn1)S(=O)(=O)c1ccc(Br)cc1
-4%	COC(=O)Cn1c(=NC(=O)C2COc3ccccc3O2)sc2cc(S(N)(=O)=O)ccc21 (centres undefined)
-2%	CC(=O)Nc1ccc(N2CCN(C(=O)c3cccs3)CC2)cc1
-14%	CCCOc1ccc(C(O)CCNC(CC(=O)O)c2ccccc2)cc1 (centres undefined)
-17%	CCN(CC(=O)Nc1ccc2c(c1)OCCO2)Cc1cc(=O)oc2c(C)c(C)ccc12
-14%	COC(=O)c1cccc(NC(=O)CCc2cc(OC)c(OC)c(OC)c2)c1
-16%	CCOC(=O)c1nc(Nc2ccccc2)c2ccccc2n1
4%	O=C1c2ccccc2C(=O)N1CCN1CCCCC1
-10%	CCc1ccc(OCC(=O)N/N=C(\C)c2ccc(OC(F)F)cc2)cc1
1%	Cc1cc(=O)cc(C)[nH]1
-16%	CCc1nnc(NC(=O)CSc2nc3cccnc3n2Cc2ccccc2)s1
-15%	CCNC(=S)NS(=O)(=O)c1ccccc1
-9%	O=C(O)CCC/C=C\C[C@@H]1[C@@H](/C=C/[C@@H](O)COc2cccc(C(F)(F)F)c2)[C@H](O)C[C@@H]1O
7%	O=C(CSc1nnc(Cc2ccccc2)n1-c1ccc(F)cc1)N1CCOCC1
14µM*	CN(c1ccc(C(=O)NCC2CCCO2)cc1)S(=O)(=O)c1ccccc1 (centres undefined)
-7%	CCOCCCNC(=O)c1c[nH]c2ccc(C)cc2c1=O
-30%	O=C(CCNC(=O)Cn1ccc2ccccc2c1=O)NCCCN1CCN(c2ccc(F)cc2)CC1
-10%	COc1ccccc1N1CCN(c2nc3c(C)cccn3c(=O)c2C=O)CC1
?	CCC(c1nnnn1Cc1ccc(OC)cc1)N(CCCO)Cc1cc2cc3c(cc2[nH]c1=O)OCO3 (centres undefined)
-4%	Fc1ccc(Nc2nc(Oc3ccc4c(c3)OCO4)nc(N3CCOCC3)n2)c(F)c1
-15%	O=C(CCn1c(=O)oc2ccccc21)Nc1nc2ccccc2s1
-13%	CC(C)OC(=O)COc1ccc(-c2ccccc2)cc1
?	COc1cc(-c2[nH]nc3c2C(c2ccoc2)C(C#N)=C(N)O3)cc(OC)c1OC (centres undefined)
-8%	CCOC(=O)c1cc(-c2ccc(C)cc2)n(CCC(=O)NC(C)CC)c1C (centres undefined)
-12%	O=C(CSCc1ccc(F)cc1)Nc1ccccc1C(=O)N1CCOCC1
-2%	O=C(NCC(=O)N1CCCC1)c1cccs1
-10%	O=C1C(=O)c2ccccc2C(O)=C1C(C1=C(O)c2ccccc2C(=O)C1=O)c1ccc(Cl)cc1
-27%	COc1ccc(/C=N/NC(=O)Cn2c(Cc3ccc(OC)c(OC)c3)nc3ccccc32)cc1
-2%	CCOc1ccc(NC(=O)CC2C(=O)N(C)C(=S)N2Cc2ccco2)cc1 (centres undefined)
-19%	COc1ccc2c(c1)C(=O)N(c1ccc(C)cc1)C(=O)C2
-24%	O=C(c1cc2nc(-c3ccco3)cc(C(F)(F)F)n2n1)N1CCN(c2ccccn2)CC1
-6%	CC(Sc1nnc(-c2cccs2)n1-c1ccccc1)C(=O)NCc1ccco1 (centres undefined)
-27%	CC1=C(C(=O)Nc2ccccc2)C(c2cccs2)C(C#N)=C(SCC#N)N1 (centres undefined)
?	O=C1OCCN1C(=O)[C@H]1[C@H](c2ccccc2)C(c2ccccc2)=NN1c1ccccc1
-6%	O=C(NCCOCCOCCNC(=O)c1cccnc1)c1cccnc1
-15%	FC(F)(F)c1nnc2sc(-c3ccco3)nn12
-8%	O=C(COc1ccccc1[N+](=O)[O-])N/N=C/c1cccs1
-8%	COc1ccccc1CNC(=O)N[C@@H](Cc1ccccc1)C(=O)O
-7%	OCCNCCCCOc1ccccc1F

Next part
HPGD block	SMILES
-7%	O=C(CCn1c(=O)sc2ccccc21)Nc1ccon1
-10%	COc1cccc(N(CC(=O)N2CCN(C)CC2)S(=O)(=O)c2ccccc2)c1
-13%	CCn1c(SCC(=O)N2CCCc3ccccc32)nnc1-c1ccoc1C
-7%	O=C(O)CCNS(=O)(=O)c1ccccc1
-10%	Cc1ccc(-c2nnc(N3CCN(C(=O)CN4CCOCC4)CC3)c3ccccc23)cc1
-2%	Cc1ccc(S(=O)(=O)N2CCN(C(=O)CN3CCOCC3)C2)cc1
-13%	Cc1ccccc1S(=O)(=O)Cc1ccc(C(=O)N2CCN(c3ncccn3)CC2)o1
-6%	O=C(CCc1nc2ccccc2c(=O)[nH]1)OCc1ccc(Cl)cc1Cl
?	CC1CCCN(C(=O)CNC(=O)Cn2ccc3ccccc3c2=O)C1 (centres undefined)
?	CCOCCCNC(=O)c1cc2sc(Cl)cc2n1CC
-6%	CCNC(=O)CSc1nc2ccccc2c(=O)n1-c1cc(OC)ccc1OC
-3%	O=S1(=O)C=CC(Nc2ccccc2)C1 (centres undefined)
-14%	CCOC(=O)CSc1n[nH]c(-c2cccnc2)n1
-11%	O=C(C1CC1)N1CCc2cc(Br)cc(S(=O)(=O)NCc3ccco3)c21
-30%	CCCC/C=C/C(NC(=O)c1ccco1)c1ccccc1 (centres undefined)
4%	CCCP(=O)(CC(=O)O)c1ccccc1 (centres undefined)
-9%	O=C(O)c1cc(=O)[nH]c(SCc2ccccc2)n1
-22%	C=CCn1c(COc2cccc3cccnc23)nnc1SCC(=O)OC
-7%	O=[N+]([O-])c1ccc(Cl)c(/C=N/N2CCN(Cc3ccccc3)CC2)c1
-11%	O=C(Cn1c(CC(=O)N2CCOCC2)nc2ccccc21)Nc1ccc2c(c1)OC(F)(F)O2
13µM*	N#Cc1c(NCc2ccccc2)ccnc1NCc1cccnc1
?	CC(C)C(=O)Nc1c2c(nc3ccccc13)N(C)CC2
-3%	COc1ccc(-c2nc3cnc(Nc4ccccc4)nc3n(CCC#N)c2=O)cc1
-10%	Cc1ccc2cc(C#N)c(SCC(=O)N3CCCc4ccccc43)nc2c1C
-20%	Cc1ccc(NC(=O)N(Cc2ccco2)Cc2cc3cc(C)cc(C)c3nc2Cl)cc1
-11%	CCOC(=O)C1=C(O)/C(=C/c2cc(OC)c(OC)c(OC)c2)SC1=Nc1ccc(OC)cc1
-7%	COc1ccc(C2c3c(C)nn(-c4ccccc4)c3NC(=O)N2c2ccccc2)cc1 (centres undefined)
-3%	Cc1ccc(S(=O)(=O)NCC(=O)N2CCCCC2)cc1
32µM*	Cc1[nH]n(-c2ccccc2)c(=O)c1C(c1cccc([N+](=O)[O-])c1)c1c(C)[nH]n(-c2ccccc2)c1=O
-2%	O=C(O)CNC(=O)CC12CC3CC(CC(C3)C1)C2
-21%	CC(=O)c1c(OC(=O)c2ccco2)c2ccccc2n1C
-1%	Cc1cccc(C)c1OCC(=O)NCc1nnc(SCC(=O)NC2CCCCC2)n1C
?	Cc1ccn2c(NCc3ccc4c(c3)OCO4)c(-c3ccc(O)cc3)nc2c1
-11%	CCc1ccc(C(=O)CN(C#N)c2nc(C)cc(C)n2)cc1
-2%	COc1ccc(S(=O)(=O)N(CC(=O)O)c2ccccc2)cc1
10µM*	Cc1nc(SCC(=O)c2ccc(F)cc2)n[nH]1
-6%	Cc1ccc(C)c(NC(=O)Cn2nc(C)c3ccccc3c2=O)c1
-10%	COc1ccc(N=C2S/C(=C\c3cccs3)C(=O)N2CC(C)C)cc1
?	COC(=O)C1=C(C)NC2=C(C(=O)CC(C)(C)C2)C1c1cnn(C)c1C (centres undefined)
-8%	CCCOc1cccc(C2/C(=C(/O)c3ccc(OC)cc3)C(=O)C(=O)N2CCN(C)C)c1 (centres undefined)
-10%	CCCS(=O)(=O)N1CCN(C(=O)c2cccs2)CC1
?	O=C(COc1ccc(/C=N/NC(=O)CSCc2ccc([N+](=O)[O-])cc2)cc1)NCc1ccco1
3%	CCN(C(=O)CSc1ncn[nH]1)C1CCCCC1
-5%	O=C(CCCc1nc(-c2ccccc2Cl)no1)NC1CCCCC1
-12%&-6%	COC(=O)[C@@]1(Cc2ccc(F)cc2)[C@H]2c3cc(C(=O)N4CCCC4)n(CCO)c3C[C@H]2CN1C(=O)c1ccccc1
-1%	O=C(Cn1nnc(-c2cccc(C(F)(F)F)c2)n1)N1CCOCC1
?	O=C(NCc1cccnc1)/C(=C\c1ccc(-c2ccc(Cl)c(Cl)c2)o1)S(=O)(=O)c1ccccc1
-1%	O=c1c2ccccc2[nH]c(=S)n1Cc1cccs1
?	CCc1nnc2sc(-c3ccc(NC(=O)c4ccc5c(c4)OCCO5)cc3)nn12
1%	CCCCn1nc(C(=O)O)ccc1=O
-8%	Cn1cnnc1SCc1ccc(C(=O)N/N=C(\CCC(=O)O)c2ccc(C(C)(C)C)cc2)cc1
-10%	CCC/C=C(\CCC)C(NS(=O)(=O)c1ccc(C(F)(F)F)cc1)c1ccc(C(=O)OC)cc1 (centres undefined)
-2%	CC1CCC2[C@](C)(CO)C(O)CC[C@]2(C)C12CCC(CO)(CCO)O2 (some centres undefined)
-8%	CC(C)(C)NS(=O)(=O)c1ccc(CCC(=O)NCc2cccnc2)cc1
-15%	O=C(N/N=C/c1ccco1)c1ccc(N2CCCC2=O)cc1
-7%	Cc1nn(C)c(C)c1NC(=O)c1ccnn1C
-11%	Cc1ccccc1Nc1nc(N)nc(CSc2nc3ccccc3s2)n1
-8%	O=C(O)CN1CCCC1=Nc1ccccc1
-5%	CCCCn1ccc(O)c(Cc2ccc(F)cc2)c1=O
-6%	O=c1[nH]cnc2c1N1CCC2CC1

Pulled one by one from the list above:
HPGD block	SMILES
-15%	O=C(N/N=C/c1ccco1)c1ccc(N2CCCC2=O)cc1
?	CCc1nnc2sc(-c3ccc(NC(=O)c4ccc5c(c4)OCCO5)cc3)nn12

Following part
HPGD block	SMILES
-4%	COc1cc(CC(=O)NCc2ccco2)cc(OC)c1OC
-7%	Cc1c(Cl)c([N+](=O)[O-])nn1CC(=O)Nc1ccc2c(c1)OCO2
-5%	CC1=NN(c2nc(-c3ccc(F)cc3)cs2)C(=O)C1
-4%	Cc1ccc(CNC(=O)C2CC(c3ccc([N+](=O)[O-])cc3)=NO2)cc1 (centres undefined)
-2%	COc1ccc(N(CC(=O)O)S(C)(=O)=O)cc1OC
-1%	O=[N+]([O-])c1ccc(Sc2nccn2Cc2ccccc2)c([N+](=O)[O-])c1

By substructure: those above with two or more sulfur atoms.
HPGD block	SMILES
-10%	O=C(O)C1CCCCN1S(=O)(=O)c1ccc(Cl)s1 (centres undefined)
-15%	Cc1ccc2nsnc2c1S(=O)(=O)N(Cc1ccco1)Cc1cc2cccc(C)c2[nH]c1=O
-4%	COC(=O)Cn1c(=NC(=O)C2COc3ccccc3O2)sc2cc(S(N)(=O)=O)ccc21 (centres undefined)
-16%	CCc1nnc(NC(=O)CSc2nc3cccnc3n2Cc2ccccc2)s1
-15%	CCNC(=S)NS(=O)(=O)c1ccccc1
-6%	CC(Sc1nnc(-c2cccs2)n1-c1ccccc1)C(=O)NCc1ccco1 (centres undefined)
-27%	CC1=C(C(=O)Nc2ccccc2)C(c2cccs2)C(C#N)=C(SCC#N)N1 (centres undefined)
-10%	COc1ccc(N=C2S/C(=C\c3cccs3)C(=O)N2CC(C)C)cc1
-10%	CCCS(=O)(=O)N1CCN(C(=O)c2cccs2)CC1
-1%	O=c1c2ccccc2[nH]c(=S)n1Cc1cccs1
-11%	Cc1ccccc1Nc1nc(N)nc(CSc2nc3ccccc3s2)n1

The list is partial; rates above refer to the full screens.
